# Bfl-1 A1 inh = inhibitors of the anti-apoptotic protein A1, read as caspase activation; caspase activation, % (no concentration beside the values); 330,000 compounds, 0.066% hits; AID 2462; MEF A1-2A-BIM cells, Caspase-Glo 3/7 luminescence, 3 h; percent of clofoctol response, vehicle zero;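 active = over half of replicate activation scores above 10%, or exactly half above 10 with the replicate mean above 10; inconclusive = replicate mean below 10 yet half the replicates above 10; inactive = over half of replicates below 10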;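 also: wells of about 30 µL received 50 nL stock; many hits fall short of the cut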
# RanGTP-Imp inh = disruptors of Ran-importin-beta complex formation – biochemical, FRET, CFP-Ran, YFP-importin-beta, homogeneous, primary screen | AID 2216 | inhibition, % (no concentration beside the values) | 300,000 compounds, 1.1% hits | cell-free CFP-Ran/YFP-importin-beta FRET ratio;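 active = most replicates above 15%; inconclusive = exactly half above 15%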;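 also: 0% = DMSO wells and 100% = Ran loaded with GDP instead of GTP; wells of about 40 µL received 100 nL stock; the first replicate is given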
# UCH37 DUB inh = inhibitors of human deubiquitinating enzyme UCH37 | 330,000 compounds, 0.33% hits | purified proteasome/UCH37, Ub-AMC cleavage fluorescence | AID 588478 | Q9Y5K5 | inhibition, % (concentration not given with the values);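 active = mean of two replicates above 20%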;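 also: 0% = compound-free wells with enzyme and 100% = wells lacking proteasome; stock transfer was 100 nL into about 20 µL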
# Target sequence (Q9Y5K5 whole entry, looked up): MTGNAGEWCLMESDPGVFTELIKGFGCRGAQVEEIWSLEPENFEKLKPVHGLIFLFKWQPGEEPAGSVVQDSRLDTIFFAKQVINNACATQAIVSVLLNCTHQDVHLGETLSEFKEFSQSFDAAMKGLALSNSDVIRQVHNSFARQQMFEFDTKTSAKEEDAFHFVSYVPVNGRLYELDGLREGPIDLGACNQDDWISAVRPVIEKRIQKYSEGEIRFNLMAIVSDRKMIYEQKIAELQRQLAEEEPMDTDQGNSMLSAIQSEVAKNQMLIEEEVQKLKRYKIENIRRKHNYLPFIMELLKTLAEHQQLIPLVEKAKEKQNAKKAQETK
#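 assay system = human UCH37 enzyme supplied as purified proteasome complex | amount = proteasome at 0.15 nM in the dispensed enzyme solution | schedule = 30 min compound-proteasome preincubation then 25 min substrate reaction, room temperature | measured by = fluorescence, ex 355 nm, em 460 nm | benchmarks = no-proteasome wells (full inhibition) and compound-free wells (no inhibition)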
# Beta cell apopt = beta cell apoptosis inhibition; 300,000 compounds, 0.8% hits; AID 435005; INS-1E cytokine-induced death, ATP luminescence, 48 h; percent of positive-control rescue, neutral wells zero; protection from apoptosis, % (no concentration beside the values);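 active = all replicates at 75% or more, or half of them and the mean; inconclusive = half reach 75% but not the mean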;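 also: 0% = cytokine-treated negative control wells and 100% = positive control rescue; higher means more ATP so stronger rescue from cytokine killing; wells of about 40 µL received 100 nL stock; the first replicate is given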
# Calb FLC = C. albicans growth modulation with fluconazole; 300,000 compounds, 0.57% hits; growth inhibition, % (test concentration not listed); AID 1979; C. albicans CaCi-2 (fluconazole-resistant clinical isolate) + fluconazole, Alamar Blue growth, 48 h;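 active = most replicates above 75%; inconclusive = exactly half above 75%; inactive = most below 75%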;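 also: all wells also contain fluconazole at 8 µg/ml as a sub-toxic cotreatment; 0% = median of DMSO wells and 100% = median of geldanamycin control wells; wells of about 8 µL received 7.5 nL stock; the first replicate is given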
# LANA-H2B inh = blocks KSHV LANA binding to histone H2A/H2B; cell-free LANA-H2A/H2B peptide, fluorescence polarization; inhibition, % (concentration not given with the values); 320,000 compounds, 0.6% hits; AID 2629; in the data active = inhibition mostly above about 10%, no sharp cut-off; inactive = mostly below about 6.7%;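 also: stock transfer was 7.5 nL into about 10 µL; 0% = median of vehicle wells and 100% = median of positive control wells; one replicate is shown; the record names a cut of 25% in any replicate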
# Beta2AR agonist = agonists of human beta-2 adrenergic receptor inducing internalization. AID 504454. response, % (concentration not given with the values). Am2.2-beta2AR cells, FAP receptor internalization, flow cytometry; reference of the scale not given here. P07550. 340,000 compounds, 0.43% hits;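 active = response above a set limit, near 3 SD of response in nonfluorescent compounds, cut at about 42% in these data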;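 also: stock transfer was 100 nL into about 11 µL; a reference agonist was the positive control; negative values mostly stem from fluorescent compounds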
# Target sequence (P07550 whole entry, looked up): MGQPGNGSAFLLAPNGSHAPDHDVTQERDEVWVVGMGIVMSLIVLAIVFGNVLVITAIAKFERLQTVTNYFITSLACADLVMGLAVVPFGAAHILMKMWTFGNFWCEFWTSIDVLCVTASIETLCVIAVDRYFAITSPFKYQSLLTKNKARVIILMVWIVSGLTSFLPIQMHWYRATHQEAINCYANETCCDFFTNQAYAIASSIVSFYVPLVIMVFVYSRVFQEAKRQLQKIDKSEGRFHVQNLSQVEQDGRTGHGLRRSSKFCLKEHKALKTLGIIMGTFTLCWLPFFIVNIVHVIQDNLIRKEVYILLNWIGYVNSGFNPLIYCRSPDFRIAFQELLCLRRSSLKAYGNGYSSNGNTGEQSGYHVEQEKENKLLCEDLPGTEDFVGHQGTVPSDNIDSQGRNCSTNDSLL
# T cruzi repl = blocks replication of Trypanosoma cruzi; T. cruzi beta-gal in NIH3T3, luminescence, 90 h; AID 1885; inhibition, % (no concentration beside the values); 300,000 compounds, 1.4% hits;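 active = mean inhibition across valid replicates above about 55%, limit read from the data; inconclusive = mean below that limit but half or more replicates reach it; inactive = mean below it, under half of replicates reach it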;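 also: signal also drops with host cell toxicity which is not excluded here; 0% = plate median of DMSO wells and 100% = zero luminescence signal; higher percent means less beta-gal luminescence so fewer parasites; stock transfer was 50 nL into about 50 µL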
# * = called active by the depositor; ? = inconclusive; . = not tested or not shown.
SMILES,Bfl-1 A1 inh,RanGTP-Imp inh,UCH37 DUB inh,Beta cell apopt,Calb FLC,LANA-H2B inh,Beta2AR agonist,T cruzi repl
Cc1ccc(S(=O)(=O)N2CCN(Cc3cc4c(cc3Br)OCCO4)CC2)cc1,0.1,.,1.6,-2,.,0.7,7,.
Cc1cccc(C(=O)Oc2ccc(/C=N/O)cc2)c1,-5.6,-1.4,.,0,4,4.5,-3,-16
COC(=O)CCC(=O)Nc1cc(Cl)cc(Cl)c1,-0.3,-0.4,1.1,-1,-1,-1.4,-4,5
COc1ccc(CCNC(=O)COc2ccc(S(=O)(=O)N3CCOCC3)cc2)cc1OC,-0.1,0.7,0.5,.,14,-0.6,-8,-2
COc1ccc(-c2nn(-c3ccccc3)cc2/C=N/Nc2ccc3ccccc3n2)cc1OC,0.5,0.6,.,86*,-14,1.9,-6,47
CCOc1ccc(C)cc1S(=O)(=O)n1cnc2ccccc21,1.3,0.3,-0.4,.,-1,-1.8,-7,-6
CCCCc1nc2ccccc2n1Cc1nnc2n1-c1ccccc1SC2,-0.7,-3.4,3.6,1,?,-2.9,-4,6
Cc1ccccc1NC(=O)N1CCN(C/C=C/c2ccccc2)CC1,1.5,-0.4,5.3,0,-18,-0.1,-3,11
CC(=O)N/C(=N\c1nc(C)cc(C)n1)Nc1ccc2ccccc2c1,0.5,4.2,.,33,-15,-3.5,-6,20
Nc1nnc(Cc2ccc(Cl)c(Cl)c2)s1,-0.4,-4.2,-2.3,-2,-6,-1.4,2,-15
CCN1/C(=C/c2sc(-c3ccccc3C)c[n+]2C)Sc2ccccc21,.,2.7,3.9,.,106*,.,-4,66*
COC(C(=O)Nc1ccnn1C1CCN(Cc2ccccn2)CC1)c1ccccc1 (configuration not stated),0.6,2.0,-0.7,-8,3,-2.3,7,-2
O=C(Oc1c(Cl)cc(Cl)c2cccnc12)c1ccco1,-0.5,1.8,6.0,91*,101*,6.1,8,68*
Cc1cc(=O)oc2cc(OCC(=O)OCC(=O)NC3CC3)ccc12,-0.7,5.7,-25,-1,-20,1.4,-7,0
O=C(NCc1ccccc1)C(c1ccc(Cl)cc1)N(C(=O)c1csnn1)C1CC1 (configuration not stated),-0.3,-3.0,.,-6,26,-0.7,-5,15
C=CCN(CC=C)C(=S)NCCc1ccc(OC)c(OC)c1,0.0,0.6,4.9,-8,-8,3.0,-5,-5
COc1ccc(NC(=O)c2ccc(NC(=O)COC(=O)c3cnc(C)cn3)cc2)cc1,0.1,7.7,6.1,-11,-13,-2.4,6,-2
CC(=O)Nc1ccc(S(=O)(=O)NC2=NCN(c3cccc([N+](=O)[O-])c3)CN2)cc1,-0.2,1.5,7.8,-7,-11,-5.7,14,-11
COc1ccc(-c2c(NC(=O)c3ccco3)oc3c(C)cccc3c2=O)cc1OC,1.6,-0.9,5.8,-4,59,4.2,-6,-6
CCCNS(=O)(=O)c1ccc(NC(=O)c2cccnc2)cc1,-1.2,8.1,0.6,-8,?,-0.8,0,-8
Cc1noc(/C=C/c2ccccn2)c1[N+](=O)[O-],0.7,-2.6,5.1,2,85*,-1.7,-1,41
COCc1ccc(C(=O)N2CCCC(C(=O)c3cc(F)ccc3F)C2)s1 (configuration not stated),-0.6,-1.8,3.4,.,7,-0.4,5,1
Cc1ccccc1-c1cc(=O)c2c(O)cccc2o1,0.5,2.7,-1.4,0,-4,10,-2,9
N#CCCN/N=C(/Cc1nc2ccccc2[nH]1)c1cccc(Cl)c1,-0.1,5.6,.,-6,13,-0.9,-3,41
CCc1c(C)sc(NC(=O)c2ccc(Br)o2)c1C(=O)OC,0.5,-2.4,-48,3,11,1.9,-13,14
COCCCn1c(-c2ccc(S(=O)(=O)N3CCOCC3)cc2)csc1=Nc1ccccc1,1.2,2.4,2.2,38,-5,-1.1,0,-3
COc1ccc(-c2c(-c3ccccc3)n(C)c3ccccc23)cc1,0.6,.,-21,3,.,4.6,-1,.
O=c1cc(-c2ccccc2Cl)oc2c(NS(=O)(=O)c3cc(Cl)cc(Cl)c3O)ccc(O)c12,0.5,-8.2,1.6,45,?,0.3,7,-5
O=C(COn1nnc2ccc(S(=O)(=O)N3CCOCC3)cc21)NCCc1ccccc1,0.6,-4.5,.,2,2,9.3,3,-5
Cc1ccc(S(=O)(=O)NCC(=O)N/N=C/c2ccccc2O)cc1,-0.2,?,.,.,-16,5.8,-4,-3
COc1cccc(-c2nnc(SCC(=O)Nc3cc(C)on3)o2)c1,-1.7,2.0,2.5,-3,0,2.0,0,-40
CCSc1nc2ccccc2n1Cc1cccc([N+](=O)[O-])c1,0.5,-1.2,4.0,-6,7,-2.6,6,14
O=C(CN1C(=O)c2ccccc2S1(=O)=O)Nc1cccc(S(=O)(=O)N2CCCCC2)c1,2.7,.,1.6,5,.,-3.4,12,.
CCN(c1ccccc1)S(=O)(=O)c1cc([N+](=O)[O-])ccc1N,0.3,-1.0,5.2,-6,-7,1.3,4,10
CCOc1cc(/C=N/NC(=O)c2ccc(CN3CCOCC3)cc2)ccc1OC,1.3,6.8,.,-3,24,-4.3,3,-8
COc1cc(/C=C2/SC(=Nc3ccc(O)cc3)NC2=O)ccc1O,2.8,-3.6,7.6,34,6,-10,-24,19
O=C(CSc1n[nH]c(=O)n1C1CC1)c1c[nH]c2ccccc12,1.1,.,4.9,6,.,9.7,8,.
CC(=O)N1CCN(c2nc(C)nc3sc4c(c23)CCC(C)C4)CC1 (configuration not stated),0.8,-5.8,0.9,5,40,-0.4,0,9
COc1ccc2c3c(c(=O)oc2c1OCC(=O)O)CCCC3,0.6,-2.3,-58,-9,3,2.4,-1,0
Cc1ccc(C(=O)NC(=S)Nc2ccc(NC(=O)c3cccc(Cl)c3)cc2)cc1,1.2,0.7,.,1,-1,1.1,5,-32
Cc1noc(C)c1C(=O)Nc1ccc(C#N)cc1,-0.9,-1.9,0.9,-1,0,-4.1,0,-3
CC(C)(CNC(=O)CC1C(=O)NCCN1Cc1cccc(F)c1)N1CCOCC1 (configuration not stated),-0.4,-0.7,-1.9,0,-3,-2.4,4,-4
Cc1ccc(N=CC2=C(O)CC(c3cccc(Cl)c3)CC2=O)cc1 (configuration not stated),-0.4,0.1,-25,0,7,-2.0,1,-35
Cn1c(=O)c2ncn(CC(=O)N/N=C/C=C/c3ccccc3)c2n(C)c1=O,-0.1,1.1,.,-4,-6,-2.0,-6,-4
COC(=O)c1ccc(N2C(=O)C3CC=CC(C)C3C2=O)cc1 (configuration not stated),-0.3,1.2,0.2,-1,-4,-4.9,-2,7
O=C(NCC1CCCO1)c1c(O)c2ccccc2[nH]c1=O (configuration not stated),0.2,0.2,-5.8,.,10,-2.2,-4,-7
COc1ccc(C(=O)NC(=S)NNC(=O)c2c(-c3ccccc3)noc2C)cc1OC,0.1,2.4,3.6,10,3,-2.2,-2,-7
CN1CCN(CCCCOc2ccc(Br)cc2)CC1,1.3,1.2,6.5,-4,-3,2.5,4,49
CC(C)NC(=O)c1ccc2c(c1)N(CC(=O)N1CCCCC1)C(=O)C(C)(C)O2,0.5,3.1,-2.4,-4,0,-4.4,1,-2
O=C(c1nc2ccccn2c1CN1CCC(Cc2ccccc2)CC1)N1CCCC1,-0.3,-4.6,-1.7,-4,-3,-3.5,-1,16
CN(C)c1ccc(C(c2nnnn2CCOC(=O)Nc2ccc(Cl)cc2)N2CCOCC2)cc1 (configuration not stated),.,-138,1.4,.,11,.,3,-3
CC(NC(=O)CCCOc1ccc(Cl)cc1)c1ccccc1 (configuration not stated),1.0,2.0,-0.2,-17,-9,1.2,-6,-1
COc1ccccc1NC(=O)/C=C/C(=O)O,0.6,3.4,-3.9,-7,0,0.8,3,-1
ClCc1nnc(-c2cc3c(s2)CCCC3)o1,.,0.2,-0.2,.,0,.,8,40
Cc1ccc(Sc2ncccc2COC(=O)Nc2c(C)cccc2C)cc1,1.3,-3.9,1.6,0,1,0.2,63*,31
Cc1ccc2c(c1)[C@@H]1[C@H](CO2)[C@H](c2ccccc2)[C@]2(C)C(=O)N[C@H](C)C(=O)N12,-0.6,.,-3.2,-2,.,5.4,-1,.
CN(c1ccccc1)S(=O)(=O)c1ccc(C(=O)NCc2ccccc2F)cc1,-0.6,.,0.1,4,.,6.6,2,.
Cc1ccc(NC(=O)/C=C/c2ccc([N+](=O)[O-])s2)cc1,0.6,0.7,.,4,9,-0.5,11,31
O=C(CSc1ncn[nH]1)NCc1ccc(Cl)cc1,0.3,6.3,1.6,-6,-2,0.4,-6,-4
Cc1nnc(SCC(=O)N(Cc2ccccc2)C(C)(C)C)[nH]c1=O,0.3,0.7,-1.1,-1,-7,4.2,3,-3

# The list continues.
SMILES,Bfl-1 A1 inh,RanGTP-Imp inh,UCH37 DUB inh,Beta cell apopt,Calb FLC,LANA-H2B inh,Beta2AR agonist,T cruzi repl
COc1ccccc1/C=C/C(=O)c1ccccc1,-1.5,0.0,.,4,-5,5.8,-4,1
C=CCOC(=O)C1C(=O)CC(C)(O)C(C(=O)OCC=C)C1c1ccc(N(C)C)cc1 (configuration not stated),0.0,-3.0,3.8,-1,9,-0.8,-5,9
Cc1cc(C)n(-c2nc(C(=O)O)cs2)n1,-0.3,-4.5,-2.2,.,-22,7.6,1,0
COc1ccc(CCNc2nc(-c3ccco3)cc(C(F)(F)F)n2)cc1OC,-0.7,?,-0.5,-4,?,-3.0,-2,9
O=C(O)CCC(=O)NCc1ccc(C(=O)O)cc1,2.3,-5.4,-3.0,-1,-4,0.1,2,-2
CC(C)OCCCNc1nc(-c2ccccc2)nc2ccccc12,-0.3,-5.0,-3.2,10,-2,3.5,0,53
OCC(CO)(CO)N=Cc1c(O)ccc2ccccc12,0.7,0.0,16,-12,32,-3.7,-2,-7
O=S(=O)(/N=C(/c1ccccc1)N1CCOCC1)c1ccc(Br)cc1,-0.2,3.1,.,.,-6,3.0,-8,-4
CCNc1nc(NCC)nc(N(CC)C(N)=S)n1,-0.9,-1.3,3.3,4,1,-4.4,-7,3
C=CCN1CN(S(=O)(=O)c2ccc(OC)cc2)c2nc3ccccc3nc21,0.0,-0.3,-3.3,-6,2,15,-5,16
Cc1ccc(NNC(=S)Nc2ccc(C(C)C)cc2)c(C)c1,-0.5,1.2,-0.6,-6,-34,-11,-2,11
CCc1ccccc1N1CC(C(=O)Nc2cc(C)on2)CC1=O (configuration not stated),0.2,3.5,5.0,.,-1,0.6,-2,-2
CCc1cc(=O)oc2c3c(cc(OCC(=O)NCc4cccnc4)c12)OC(C)(C)CC3,-0.3,1.1,-485,8,-2,-7.5,0,26
Cc1cccc(NC(=O)c2nc[nH]c2C(=O)NCC(=O)OCc2ccccc2)c1,1.9,1.0,4.9,0,0,-4.5,2,0
CC(C)NCc1cc(Br)ccc1OCc1ccccc1,1.4,1.7,7.8,5,-7,3.3,-1,7
Cc1ccc(-n2nc3c(=O)n(CCCC(=O)NCCc4ccccc4C)nc(C)c3c2C)cc1,0.1,3.5,5.1,-4,-2,4.8,-9,2
Cc1nnc(-c2cccc(Br)c2)c2cn(-c3cccc(Br)c3)nc12,0.1,5.7,.,5,1,3.3,-5,60*

# No enrichment for hits; any-hit rate near 4.3%.
